GALR2 ag: agonists of human galanin receptor 2 (GALR2); GALR2-expressing cells, agonist activation read-out; activation, %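 (tested at 5 µM)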; hit rate 0.48% among 140,000;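 active = above mean plus 3 SD of all compounds, about 5% in these data, not always enough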;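 also: 0% = vehicle buffer wells and 100% = reference agonist at full effect; tested in CHO reporter cells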
Target sequence (O43603 whole entry, looked up): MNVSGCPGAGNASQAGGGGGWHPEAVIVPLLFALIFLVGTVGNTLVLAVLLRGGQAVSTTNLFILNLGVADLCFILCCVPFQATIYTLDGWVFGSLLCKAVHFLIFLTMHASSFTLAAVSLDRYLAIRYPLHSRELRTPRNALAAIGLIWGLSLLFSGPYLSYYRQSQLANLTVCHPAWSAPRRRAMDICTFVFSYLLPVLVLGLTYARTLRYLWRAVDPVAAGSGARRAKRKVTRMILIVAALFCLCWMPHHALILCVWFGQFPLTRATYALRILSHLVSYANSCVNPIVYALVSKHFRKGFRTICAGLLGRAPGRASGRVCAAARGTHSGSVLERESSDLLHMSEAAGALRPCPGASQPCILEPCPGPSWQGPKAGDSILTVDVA
Insulin prom inh: TRM-6 insulin promoter activity inhibition; TRM-6 cells (human fetal islet line), insulin promoter-eGFP reporter, imaging; reporter expression induced with tamoxifen; inhibition, % at 2 µM; hit rate 0.9% among 130,000;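 active = inhibition above the mean plus 3 SD, with well images judged a real hit on visual review, cut at about 60% in these data, passing the limit was not always enough; inconclusive = inhibition over the cutoff but images rejected on review; inactive = inhibition not above the cutoff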
PKD1 kinase inh: PKD1 (human) kinase inhibition | Q15139 | PKD1 kinase fluorescence polarization assay | inhibition, %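 (about 10 µM by stock and volumes)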 | hit rate 0.056% among 200,000;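 active = inhibition of 50% or more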;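 also: controls were vehicle for no effect and a reference inhibitor for full effect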
HSV augment: HSV replication enhancement; maximum fold increase; HSV replication augmentation in cells, fold increase; hit rate 0.005% among 220,000;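 active = peak rise of 1.5-fold or more in the series; inconclusive = self-fluorescent or not available for retest; tested in PC3 cells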;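 also: first round at 10 µM; read as green reporter fluorescence; hits show the peak of a series up to 25 µM; 1 = signal of infected wells without compound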
RGS16-Gao: regulators of human RGS16-Galphao interaction; bead-based flow cytometry RGS16-Galphao binding, fluorescence; actives lie on both sides; binding response (% of control), % at 10 µM; hit rate 0.38% among 220,000; AID 1441;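 active = below 25% or above 175%, edge rows of some plates excepted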;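 also: Galphao activated by GDP with aluminum fluoride before binding; 100% = wells without compound and 0% = beads without RGS; some results beyond the cut were filed as inactive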
Target sequence (O15492 whole entry, looked up): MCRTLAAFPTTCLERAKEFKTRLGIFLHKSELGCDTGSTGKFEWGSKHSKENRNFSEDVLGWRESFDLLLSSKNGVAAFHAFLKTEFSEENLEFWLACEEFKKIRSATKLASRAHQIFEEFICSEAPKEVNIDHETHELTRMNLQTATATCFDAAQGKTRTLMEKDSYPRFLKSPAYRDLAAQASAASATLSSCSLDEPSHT
Target sequence (P09471 whole entry, looked up): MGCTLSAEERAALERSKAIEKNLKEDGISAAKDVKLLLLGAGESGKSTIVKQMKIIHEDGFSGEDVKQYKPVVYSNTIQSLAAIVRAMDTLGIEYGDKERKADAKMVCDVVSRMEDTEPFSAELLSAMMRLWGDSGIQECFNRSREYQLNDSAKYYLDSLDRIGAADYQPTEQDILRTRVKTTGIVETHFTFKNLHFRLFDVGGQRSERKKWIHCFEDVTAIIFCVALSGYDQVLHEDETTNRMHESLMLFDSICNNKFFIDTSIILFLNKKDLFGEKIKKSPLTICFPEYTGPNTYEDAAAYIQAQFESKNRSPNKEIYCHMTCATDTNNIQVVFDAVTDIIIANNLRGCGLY
Insulin prom inh cell count: second read-out of Insulin prom inh, no call of its own (marks repeat the call); normalized cell count, %; measured here: cell count, toxicity; reference of the scale not given here;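 cells exposed to compound for 48 h; stained nuclei by imaging scaled within each plate; lower means fewer cells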
HSV augment primary fold: further read-out of HSV augment, marked with its call; fold increase; compound at 10 µM; measured here: primary screen fold increase 10 uM; tested in PC3 cells;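 GFP signal in the first replicate; 1 = infected wells without compound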
* = called active by the depositor; i = inactive; ? = inconclusive; . = not tested or not shown.

Under each structure – GALR2 ag, Insulin prom inh, Insulin prom inh cell count, PKD1 kinase inh, HSV augment, HSV augment primary fold, RGS16-Gao
> O=C(Cn1nc(-c2ccc(Cl)cc2)c2ccccc2c1=O)Nc1cccnc1
→ 0.0, 13, 116, 0, i, 1, 107
> CCNC(=S)NNC(=O)c1ccccc1Cl
→ -0.6, 41, 86, -14, i, 1.1, 30
> C=CCNC(=O)/C(=C\c1ccc(Br)cc1)NC(=O)c1ccccc1OC
→ ., ., ., -2, i, 0.98, 97
> COC(=O)c1ccccc1S(=O)(=O)C(C)(C)C
→ -3.6, 62, 91, -4, i, 1.1, 101
> Cc1ccc(Cc2cnc(NC(=O)C3CCCO3)s2)cc1 (configuration not stated)
→ -3.7, 43, 74, -4, i, 0.98, 99
> Cc1cccn2cc(CCNC(=O)c3ccc(Br)o3)nc12
→ -2.4, ., ., -17, i, 0.82, 93
> COc1cccc(NC(=O)CSCC(=O)O)c1
→ -1.1, 50, 94, -6, i, 0.82, 647
> CCOc1ccc(CN2CCN(C(=O)c3cccc(F)c3)CC2)cc1
→ -0.8, -33, 147, 4, ., ., .
> Fc1ccc(NC(=S)Nc2cc(Cl)ccc2Cl)cc1
→ ., 10, 157, -2, i, 1, 99
> COc1ccc(NC(=S)Nc2ccc(F)cc2)c(OC)c1
→ -0.2, 9, 73, 3, ., ., .
> COc1ccc(CCNC(=O)/C=C/C(=O)O)cc1
→ ., 0, 157, -3, i, 0.95, 100
> CCS(=O)(=O)N1CCN(c2ccc(Cl)cc2[N+](=O)[O-])CC1
→ -0.6, 10, 94, -13, i, 1, 108
> CCCCCn1c(SCc2cccc(C)c2)nc2c1c(=O)[nH]c(=O)n2C
→ ., ., ., ., i, 0.98, 106
> Cc1ccc(OC(=O)c2cc(=O)c3ccccc3o2)cc1
→ 0.5, 3, 137, 21, i, 1, 102
> Cc1cc(C)n(C(=O)CNC(=O)C2COc3ccccc3O2)n1 (configuration not stated)
→ -0.8, 0, 101, -1, i, 0.95, 86
> O=C(CSc1nnc(-c2cccnc2)n1Cc1ccco1)c1ccc(Br)cc1
→ -1.2, 12, 83, 2, i, 0.85, 111
> CCC(COC)NCc1cn(-c2ccc(OC)cc2)nc1-c1cccc(F)c1 (configuration not stated)
→ ., ., ., 8, i, 0.84, 102
> CC(=O)Nc1ccccc1NC(=O)c1ccccc1
→ ., ., ., 0, i, 0.99, 99
> CC(C(=O)Nc1ccc2nccnc2c1)N1C(=O)C2C3C=CC(C3)C2C1=O (configuration not stated)
→ -1.5, ., ., -10, i, 0.79, 102
> CC(Oc1ccc(Cl)cc1Cl)/C(N)=N/O (configuration not stated)
→ ., ., ., ., i, 0.9, 108
> O=C(Cc1cccc2ccccc12)NN1C(=O)/C(=C\c2cccnc2)SC1=S
→ ., ., ., ., i, 0.83, 98
> CCOc1ccccc1OC(=O)c1cc2ccccc2oc1=O
→ ., -32, 112, -5, i, 1.1, 98
> CCN(CC)S(=O)(=O)c1cccc(-c2nnc(SCc3ncc(-c4ccccc4)o3)n2C)c1
→ -0.8, ., ., -4, i, 0.92, 101
> COc1ccccc1NC(=O)CN1C(=O)NC(CC(C)C)C1=O (configuration not stated)
→ -0.4, ., ., -5, i, 0.78, 103
> CCCCCC[N+](C)(C)CC/C=C1/c2ccccc2Sc2ccc(Cl)cc21
→ ., ., ., ., i, 0.89, 87
> COC(=O)N1[C@H](C)C=C[C@]1(Cc1ccccc1)C(=O)O
→ -1.4, -5, 140, 3, i, 1.1, 121
> Cn1c(=N)c(S(=O)(=O)c2ccc(Cl)cc2)cc2c(=O)n3ccccc3nc21
→ -0.9, 38, 43, -12, ., ., .
> CC1(C)CC(=O)C2=C(C1)Nc1ccccc1S2
→ ., ., ., ., i, 0.83, 103
> COc1ccc(/C=C/C(=O)c2c(C)nc3ccccn23)cc1
→ -0.1, ., ., -3, i, 0.9, 94
> CCOc1ccccc1C(=O)NC(C(=O)NCc1ccc(F)cc1)C(C)C (configuration not stated)
→ ., -8, 130, 9, i, 0.97, 100
> Cc1ccc(C(=O)NCC(=O)Nc2ccc(C)c(S(=O)(=O)Nc3ccc(Cl)cc3)c2)s1
→ ., 33, 96, 0, i, 0.92, 100
> O=C1c2ccccc2C(O)(c2ncc[nH]2)N1CCc1ccccc1 (configuration not stated)
→ -2.9, -29, 66, -13, i, 1.1, 105
> COc1cc(NC(=O)c2nnn(Cc3ccc(SC)cc3)c2N)cc(OC)c1
→ -0.4, ., ., 11, i, 1.1, 124
> O=C(CSc1nc(Nc2ccccc2)nc(N2CCOCC2)n1)N1CCc2ccccc21
→ -0.6, -3, 131, -2, i, 1.1, 101
> CCOc1ccc(C(=O)NC2CCN(C(=O)NCc3ccccc3)CC2)cc1
→ -0.5, -36, 110, -5, i, 0.95, 100
> O=C(CCc1ccc(S(=O)(=O)NCc2ccccc2)cc1)N1CCN(Cc2ccc3c(c2)OCO3)CC1
→ -2.5, 0, 87, -3, i, 0.9, 95
> C=CC[n+]1ccc2ccccc2c1C
→ ., ., ., -2, i, 0.63, 100
> CCCC1CCC(c2ccc(C(=O)NN)cc2)CC1 (configuration not stated)
→ -0.8, 57, 60, 7, i, 1.2, 45
> Cn1nnc(NC(=O)c2ccccc2)n1
→ -1.7, -256, 87, -2, i, 0.95, 107
> Cc1onc(-c2ccccc2)c1C(=O)Nc1ccc(S(=O)(=O)N2CCCCC2)cc1
→ 1.0, ., ., 17, i, 0.8, 101
> COCCn1c(SCc2ccccc2F)nc2ccccc2c1=O
→ ., 9, 96, -4, i, 0.99, 57
> COc1ccc(C2c3[nH]c4ccccc4c3CCN2CCCn2cccn2)c(C)c1C (configuration not stated)
→ ., ., ., -5, i, 0.89, 107
> COC(=O)c1ccc(NC2(C#N)C(=O)Nc3ccccc32)cc1 (configuration not stated)
→ 0.3, -19, 166, -2, i, 0.97, 98
> NC(=O)c1c(NC(=O)CSc2nnc(-c3ccco3)n2N)sc2c1CCCC2
→ -3.9, 20, 85, -7, i, 1.4, 95
> COc1ccc(-n2c3c(cc(C(=O)NC4CCSC4=O)c2=O)C(=O)CC(C)(C)C3)cc1 (configuration not stated)
→ -1.0, ., ., 3, i, 0.86, 99
> COc1ccc(N2C(=O)CCC2=O)c(OC)c1
→ ., ., ., 3, i, 0.86, 102
> O=C(C1CCN(S(=O)(=O)c2cccc3cccnc23)CC1)N1CCN(C2CCCCC2)CC1
→ -0.6, 29, 101, -8, i, 0.85, 102
> COC(=O)CSc1nc(NC#N)nc(NC(C)(C)C)n1
→ ., ., ., ., i, 1.1, 95
> CCC(=O)N[C@@H]1CC(C(C)(C)NC(=O)CC)CC=C1C (some centres not stated)
→ -3.7, ., ., -5, i, 0.99, 102
> COCCCN(CC(=O)Nc1ccc(N2CCOCC2)cc1)S(=O)(=O)c1ccc(Cl)cc1
→ ., ., ., -9, i, 0.94, 101

Given with bars between the fields: entries from further up
SMILES | GALR2 ag | Insulin prom inh | Insulin prom inh cell count | PKD1 kinase inh | HSV augment | HSV augment primary fold | RGS16-Gao
COc1cccc(NC(=O)CSCC(=O)O)c1 | -1.1 | 50 | 94 | -6 | i | 0.82 | 647
CCOc1ccc(CN2CCN(C(=O)c3cccc(F)c3)CC2)cc1 | -0.8 | -33 | 147 | 4 | . | . | .
Fc1ccc(NC(=S)Nc2cc(Cl)ccc2Cl)cc1 | . | 10 | 157 | -2 | i | 1 | 99

Following part
Under each structure – GALR2 ag, Insulin prom inh, Insulin prom inh cell count, PKD1 kinase inh, HSV augment, HSV augment primary fold, RGS16-Gao
> CC1(C)CC(O)(CCNCc2ccc3c(c2)OCO3)CCO1 (configuration not stated)
→ -0.6, -16, 132, -6, i, 1, 106
> COc1cc(OC)cc(C(=O)N2CCC(N3CCCCCC3)CC2)c1
→ -2.8, -4, 107, -2, i, 0.58, 109
> O=C(CN(c1ccccc1F)S(=O)(=O)c1ccccc1)NC1CCCCCC1
→ -1.1, -33, 138, 0, i, 1.1, 98
> CCOC(=O)Nc1ccc2c(c1)N(C(=O)C(C)N1CCCC1)c1ccccc1CC2 (configuration not stated)
→ -2.9, -19, 105, -4, i, 0.88, 100
> CCOC(=O)Cn1nnnc1C(C(C)C)N(Cc1cccs1)Cc1cc2cc(C)ccc2[nH]c1=O (configuration not stated)
→ 1.1, 3, 72, -1, i, 0.7, 101
> COC(=O)c1ccc(NC(=O)CSc2n[nH]c(-c3ccncc3)n2)cc1
→ -1.9, 26, 122, -3, i, 0.96, 116
> CN(C)c1ccc(/C=N/n2ncc3ccccc32)cc1
→ 25*, 26, 115, -10, i, 1, 106
> CCCNC(=O)Nc1ccccc1SC
→ ., ., ., -4, i, 0.92, 101
> O=C1c2ccccc2-c2cccc(C(=O)N3CCCCC3)c21
→ ., ., ., ., i, 1, 100
> Cc1ccc2nc(Cl)c3cc(C(=O)NCCCN4CCCC4)sc3c2c1
→ ., -86, 82, 1, i, 0.68, 102
> Cn1c(NC(=O)c2ccc3c(c2)OCO3)cc(=O)n(C)c1=O
→ -1.9, ., ., -11, i, 1, 111
> O=C(Nc1ccc(Cl)cc1)Nc1ccccc1C(=O)O
→ ., 57, 146, 2, i, 0.9, 109
> CCCCNS(=O)(=O)c1ccc2nc(SCC(=O)Nc3sccc3C#N)[nH]c2c1
→ -0.4, 39, 62, -4, i, 0.89, 102
> CC(Oc1ccccc1)C(=O)Nc1nc2c(s1)C(=O)CC(C)(C)C2 (configuration not stated)
→ -3.0, -5, 55, -5, i, 1, 105
> COc1ccc(-c2nn(C)c(=O)c3ccccc23)cc1CNC(=O)CN1CCOCC1
→ -1.5, -98, 74, -9, i, 0.96, .
> COc1ccc(N(C(=O)C(C)C)S(=O)(=O)c2ccc3c(c2)n(C)c(=O)n3C)cc1
→ -0.9, -253, 75, -7, i, 0.97, 101
> CCc1cccc(N(C(=O)c2csnn2)C(C(=O)NC(C)(C)CC)c2ccccn2)c1 (configuration not stated)
→ ., -142, 88, 2, i, 1, 107
> COC1(OC)N=C(N)C2(C#N)C(c3cccc(Oc4ccccc4)c3)C12C#N (configuration not stated)
→ -3.3, ., ., -1, i, 0.99, 101
> CCN(CC)C(=O)C(=O)N/N=C/c1ccc(C(=O)O)cc1
→ -1.2, 12, 146, 5, i, 0.96, 105
> O=C(COc1ccc(Cl)cc1)NCCSc1ccccc1
→ -4.6, 20, 76, -2, i, 1, 102
> Cc1cc(/C=N/NC(N)=S)c(O)c(/C=N/NC(N)=S)c1
→ ., ., ., ., ?, ., 100
> CCCn1c(-c2cccs2)nc2nc3ccccc3nc21
→ 5.9, 26, 58, -6, i, 0.83, 100
> CCc1cccc2c(C(=S)N3CCCC3)c[nH]c12
→ ., -10, 136, 5, i, 1.1, 109
> Cc1ccc(C(=O)Nc2cc(C)c(OCC(=O)N3CCOCC3)c(C)c2)cc1
→ -1.2, 48, 84, -6, i, 0.92, 122
> O=C(O)CC1(CC(=O)NCc2csc(-c3cccs3)n2)CCCCC1
→ ., ., ., ., i, 1.2, 101
> CC(C)c1ccc(Nc2cnn(C34CC5CC(CC(CC(=O)O)(C5)C3)C4)c(=O)c2Cl)cc1
→ -2.3, 45, 63, -1, i, 1, 100
> COc1ccc(NC(=O)N2CCC(n3nnc4cc(C)ccc43)CC2)cc1
→ -0.9, -162, 84, -4, i, 0.85, 110
> COc1ccc(C(CC(=O)N2CCCCC2)C(C)C)cc1 (configuration not stated)
→ ., ., ., ., i, 0.97, 97
> Cc1cc(=O)oc2cc(OCC(=O)OCC(=O)N(C)C3CCS(=O)(=O)C3)ccc12 (configuration not stated)
→ ., ., ., ., i, 0.91, 99
> CCCCc1ccc(NC(=O)CN2NS(=O)(=O)c3ccccc3C2=O)cc1
→ -2.1, -21, 169, -6, i, 0.97, -6.9*

Entries listed so far with a tert-butyl group:
Under each structure – GALR2 ag, Insulin prom inh, Insulin prom inh cell count, PKD1 kinase inh, HSV augment, HSV augment primary fold, RGS16-Gao
> COC(=O)c1ccccc1S(=O)(=O)C(C)(C)C
→ -3.6, 62, 91, -4, i, 1.1, 101
> COC(=O)CSc1nc(NC#N)nc(NC(C)(C)C)n1
→ ., ., ., ., i, 1.1, 95

New compounds follow:
Under each structure – GALR2 ag, Insulin prom inh, Insulin prom inh cell count, PKD1 kinase inh, HSV augment, HSV augment primary fold, RGS16-Gao
> CN(C)C(=O)NC(Nc1ccc(Cl)cc1Cl)C(Cl)(Cl)Cl (configuration not stated)
→ -0.4, 0, 118, 7, i, 0.88, 17*
> Nc1nc(SCc2ccc(Cl)cc2)ns1
→ -1.6, -25, 142, -5, i, 0.84, 102
> Clc1ccccc1CN(Cc1ccccc1)c1ncnc2nc[nH]c12
→ -1.4, -6, 103, -4, i, 1, 107
> CC(C)[C@H](NC(=O)NC1CCCc2ccccc21)C(=O)O (some centres not stated)
→ -0.8, ., ., -5, i, 0.88, 103
> CC(Nc1ccccc1)c1cccnc1 (configuration not stated)
→ ., ., ., 1, i, 1, 98

Assay outcomes (PubChem)
